High-throughput results (PubChem)
StopGo RLuc – lowers the Renilla signal of an FMDV 2A StopGo reporter; HEK cells with a luciferase reporter of 2A StopGo recoding; Potency, µM (doses to about 57.5 µM), for the others: at the highest dose signal change, negative = less light; hit rate 0.32% among 120,000; AID 1745857; active means well fitted falling curve with a large enough effect; inconclusive means small, poorly fitted or top-dose-only effect; inactive means no such curve, though single readings can be large or run the other way; also: nearly all actives have a fitted effect of over 55% in size; overnight with compound
StopGo FLuc – lowers the firefly signal of an FMDV 2A StopGo reporter; HEK cells with a luciferase reporter of 2A StopGo recoding; Potency, µM (series often up to 57.5 µM), inactives show at the top dose signal change, negative = less light; hit rate 0.23% among 120,000; active = well fitted falling curve with a large enough effect; inconclusive = small, poorly fitted or top-dose-only effect; inactive = no such curve, though single readings can be large or run the other way; also: nearly all actives have a fitted effect of over 60% in size; overnight with compound
* marks the source's active call; other numbers are inactive results; ? = inconclusive; & = joins results of further samples; [ ] = another dose, or the depositor's remark. % is scaled to controls: 0 for no effect and ±100 for the full control effect; potency is read from the fitted curve at half-maximal effect. Only part of the results is shown; count on the stated rates, not on these rows.

SMILES | StopGo RLuc | StopGo FLuc
COc1cccc(-c2cc(C(=O)Nc3ccc(F)cc3)[nH]n2)c1 | 26% | 120%[activator]
Cc1ccc(Cl)cc1N1CCN(C(=O)c2ccc3c(c2)N(Cc2ccccc2F)C(=O)c2ccccc2S3(=O)=O)CC1 | -10% | -18%
COc1ccc(CCC(=O)O)cc1Br | 3% | 7%
CC(Oc1cccc(Cl)c1)C(=O)NN (configuration not stated) | -9% | 17%
O=C(C1CCN(Cc2ccccc2)CC1)N1CCN(C/C=C/c2ccccc2)CC1 | 26%[1.06 µM] | 43%[activator]
CC(CCc1ccccc1)NC(=O)C(C)O (configuration not stated) | 1% | 9%
CCOc1cc(/C=C2\NC(=O)NC2=O)ccc1OCc1ccc(Cl)cc1Cl | -3% | 13%
Cc1cccc(C)c1NC(=O)Cn1cnc2c1c(=O)n(C)c(=O)n2C | -2% | 0%
CCOc1ccc(NC(=O)c2ccc3c(c2)S(=O)(=O)N=C(C)N3CC(C)C)cc1 | 10% | 1%
Cc1ccccc1NC(=O)COc1ncnc2ccccc12 | 1% | 2%
COc1ccc(C(C)n2c(C)c3c(C)nnc(C)c3c2C)cc1 (configuration not stated) | -12% | -7%
CC(C)CNC(=O)NC(=O)COC(=O)c1ccc2c(=O)n3c(nc2c1)CCCCCC3 | -7% | -5%
CCN(CC)S(=O)(=O)N1CC=C(c2c[nH]c3cccc(C)c23)CC1 | 31%[activator] | 16%
O=C(CCc1nc(Cc2ccccc2)no1)N1CCSCC1 | -4% | 3%
O=C(Nc1ccc2c(c1)OCO2)c1cc(-c2cccc(O)c2)on1 | 18% | 0%
O=C(c1ccccc1)N1CCN(C(=O)c2n[nH]c(=O)c3ccccc23)CC1 | -4% | -6%
Cc1ccc(NC(=O)CN2C(=O)CN=C(c3ccccc3)c3ccccc32)cc1 | 96%[activator] | -20%
CCc1ccc(C(=O)COC(=O)Cc2ccc(-c3ccccc3)cc2)cc1 | 15% | 7%
Fc1ccc(-c2nnn3c2nc(NCc2ccccc2)c2ccccc23)cc1 | -3% | 22%
O=C(NN=C(/C=C/c1ccccc1)/C=C/c1ccccc1)C(c1ccccc1)c1ccccc1 | 5% | 2%
CCN(CC)C(=O)Cn1c(=O)n(Cc2ccc(C(=O)NCc3ccc(C)cc3)cc2)c(=O)c2ccccc21 | -5% | -6%
CC(C)CCNC(=O)CSc1nc2ccccc2nc1Cc1ccc(Cl)cc1 | -11% | -21%
Cc1ccc(NC(=O)N2CCN(c3nnc(C)c4c(C)n(-c5ccccc5)nc34)CC2)c(Cl)c1 | 4% | -3%
COc1cc(/C=C(\C#N)c2nc3ccccc3o2)cc(OC)c1OC | 1% | 10%
CN(C)c1ccc(CNC(=O)CN2C(=O)C3CCCCN3c3ccc(C(=O)N4CCCC4)cc32)cc1 (configuration not stated) | 25% | 6%
CCOC(=O)C1CCN(S(=O)(=O)c2cc3c4c(c2)CC(=O)N4CCC3)CC1 | -18% | -23%
COc1ccc(NS(=O)(=O)c2cc(Cl)ccc2Cl)cc1S(=O)(=O)N1CCCCC1 | 203%[activator] | 1%
COc1cc(-c2ccno2)ccc1S(=O)(=O)N1CCN(c2cc(C)ccc2C)CC1 | 59%&-7%[activator] | 0%&-10%
O=C(NC1CCCC1)C(=O)N1CCN(C(=O)c2cc3ccccc3[nH]2)CC1 | 17% | 0%
O=C(COc1ccc2c(=O)c(-c3ccccc3)coc2c1)N1CCN(c2ccccn2)CC1 | -2% | 13%
CCOc1ccc(CNC(=O)C2CCN(c3nnc(-n4c(C)ccc4C)s3)CC2)cc1 | 0% | -3%
Cc1ccc2c(CC(=O)Nc3ccc(S(=O)(=O)Nc4nc(C)cc(C)n4)cc3)coc2c1 | -17% | -12%
Cn1c(=O)[nH]c(=O)c2[nH]c(N3CCN(c4ccccc4)CC3)nc21 | -4% | 1%
COc1ccc2c(c1)O/C(=C\c1ccc(C(C)(C)C)cc1)C2=O | -27% | 20%
CCOC(=O)c1c(C)oc2nc(C)nc(N3CCN(c4ccccc4F)CC3)c12 | -11% | -7%
CSc1ccccc1C(=O)NC(C)c1ccc(F)cc1 (configuration not stated) | -6%[1.06 µM] | 13%
O=C(Nc1ccc2oc(-c3ccccc3)nc2c1)c1ccc(F)cc1 | -6% | 13%
CCOc1ccc(NC(=O)C(NS(=O)(=O)c2ccc3c(c2)CCN3C(C)=O)C(C)C)cc1 (configuration not stated) | -6% | -11%
Cc1nc2ccccc2nc1SCC(=O)N1CCCCC1 | -15% | 0%
COCCCNC(=O)CSc1nc2cc3c(cc2c(=O)n1CCCC(=O)NCc1ccc(OC)cc1)OCO3 | 0% | -15%

Looked up by compound from the entries so far, 4 records:
SMILES | StopGo RLuc | StopGo FLuc
CCOC(=O)C1CCN(S(=O)(=O)c2cc3c4c(c2)CC(=O)N4CCC3)CC1 | -18% | -23%
Cc1ccc(NC(=O)N2CCN(c3nnc(C)c4c(C)n(-c5ccccc5)nc34)CC2)c(Cl)c1 | 4% | -3%
Fc1ccc(-c2nnn3c2nc(NCc2ccccc2)c2ccccc23)cc1 | -3% | 22%
CCOc1ccc(NC(=O)c2ccc3c(c2)S(=O)(=O)N=C(C)N3CC(C)C)cc1 | 10% | 1%

Next section
SMILES | StopGo RLuc | StopGo FLuc
CCOc1cc(C2c3c(oc4cc(C)cc(C)c4c3=O)C(=O)N2CCO)ccc1O (configuration not stated) | 11% | 3%
Cc1ccc(NC(=O)Nc2cc3c(cc2Oc2ccccc2)n(C)c(=O)n3C)cc1F | 18% | 65%[activator]
CCCSc1ncc(Cl)c(C(=O)Nc2ccccc2C(F)(F)F)n1 | 13% | 15%
COc1ccc(NC(=O)CCNS(=O)(=O)c2cccc3nsnc23)cc1 | 3% | -18%
CCCCn1cnc2c1c(=O)n(CC(=O)Nc1ccc3c(c1)OCCO3)c(=O)n2Cc1ccccc1 | 19% | 26%
COc1ccccc1-c1nc(S(=O)(=O)c2ccc3c(c2)OCCO3)c(N2CCOCC2)o1 | 225%[activator] | 38%[activator]
COc1ccc2[nH]cc(C(C(=O)O)N3CCN(CCOc4ccc(Cl)cc4)CC3)c2c1 (configuration not stated) | -13% | -13%
Cc1ccc(OCC(=O)Nc2ccc(S(=O)(=O)Nc3cc(C)on3)cc2)c(Br)c1 | 68%[activator] | 0%
Cc1ccc(CNC(=O)c2ccc3c(c2)c(C)c(C)n3Cc2ccc(Cl)cc2)o1 | 0% | -15%
CCCCc1ccc(Nc2nnc(SCC(=O)NC(C)(C)C)s2)cc1 | 14% | ?
O=C(COc1ccc(Cl)cc1)NCC(c1cccs1)S(=O)(=O)c1ccc(F)cc1 (configuration not stated) | 15% | ?
C[C@@H]1CCC2[C@]3(C)COC(C)(C)O[C@H]3CC[C@]2(C)[C@@]12CCC1(COC(=O)C1)O2 (some centres not stated) | -2% | -5%
Clc1ccc(N/N=C/C(Br)=C/c2ccccc2)cc1 | 28% | 21%
CCCNC(=O)c1ccc2[nH]c3c(c2c1)CCCC3 | 28% | 200%[activator]
O/N=C1/CCN(Cc2ccccc2)C1 | 12% | 12%
N#Cc1nc(/C=C/c2ccccc2)oc1N1CCCC1 | 14% | 49%[activator]
COC(=O)Cn1c(Br)nc2c1c(=O)[nH]c(=O)n2C | -14% | -3%
O=C(COc1ccccc1[N+](=O)[O-])Nc1cccc(-c2nc3ccccc3s2)c1 | -3% | 35%[activator]
Clc1cccc(CNCCN2CCCC2)c1Cl | -1% | -6%
CCCCn1c(SC(C)C(=O)c2ccc(Br)cc2)n[nH]c1=O (configuration not stated) | ? | ?

Reprinted from the part before: six compounds; new compounds follow.
SMILES | StopGo RLuc | StopGo FLuc
O/N=C1/CCN(Cc2ccccc2)C1 | 12% | 12%
N#Cc1nc(/C=C/c2ccccc2)oc1N1CCCC1 | 14% | 49%[activator]
COC(=O)Cn1c(Br)nc2c1c(=O)[nH]c(=O)n2C | -14% | -3%
O=C(COc1ccccc1[N+](=O)[O-])Nc1cccc(-c2nc3ccccc3s2)c1 | -3% | 35%[activator]
Clc1cccc(CNCCN2CCCC2)c1Cl | -1% | -6%
CCCCn1c(SC(C)C(=O)c2ccc(Br)cc2)n[nH]c1=O (configuration not stated) | ? | ?
O=C(C1CCCN(S(=O)(=O)c2cccc3nsnc23)C1)N1CCN(c2ccccc2F)CC1 (configuration not stated) | -5% | -25%
CNc1oc(-c2ccccc2OC)nc1S(=O)(=O)c1ccc2c(c1)OCCO2 | 161%[activator] | 5%
Cc1ccc(NC(=O)Cn2c(=O)c(C(F)(F)F)nc3ccccc32)cc1C | -8% | -16%
COc1cccc(NCc2nnc3n2CCCCC3)c1 | -6% | 23%
CCOc1ccc(NC(=O)CC2C(=O)N(c3ccc(F)cc3)C(=O)N2Cc2ccc(OC)c(OC)c2)cc1 (configuration not stated) | -4% | -16%
O=C(NC1CCCC1)C(Sc1ccccn1)c1ccccc1 (configuration not stated) | 18% | 0%
CCOc1ccccc1NC(=O)NCc1ccc2c(c1)CCN2C(=O)c1ccccc1 | 7.1µM* | 8.9µM*
CCOc1ccc(NC(=O)CN2CCN(CC(=O)Nc3ccc(N(CC)CC)cc3)CC2)cc1 | -12% | -18%
Cc1cc2cc(CCNS(=O)(=O)c3ccc(Br)cc3)c(=O)[nH]c2cc1C | -16% | ?
O=c1c2[nH]c3ccccc3c2nc(SCc2ccccc2F)n1-c1ccc(F)cc1 | -4% | 10%
CSc1cccc(Nc2nc(N)c(C(=O)c3ccccc3F)s2)c1 | 13% | 77%[activator]
CC(C)NCC(O)COc1ccc(COCCOC(C)C)cc1 (configuration not stated) | -10% | -15%
O=C(NCc1cccc(CNC(=O)C2CCCC2)c1)C1CCCC1 | -2% | -2%
COc1ccc(Br)cc1-c1nc(C)c(C(=O)Nc2ccccc2)s1 | 6% | 11%
CCc1ccc(-n2c(SCc3ccccc3C)nc3[nH]ncc3c2=O)cc1 | -2% | 12%
COc1ccccc1S(=O)(=O)Cc1ccc(C(=O)NCc2ccc(Cl)cc2)o1 | 49%[activator] | -26%
COc1ccc(-c2c(C)nn3c(N4CCC(C(=O)NCCC(C)C)CC4)cc(C)nc23)cc1OC | 5% | 3%
CCCC(=O)N1CCC(C(=O)O)CC1 | 2% | 2%
O=C(Nc1ccc(-c2cn3cccnc3n2)cc1)c1ccccc1F | 21% | 110%[activator]
Cc1ccccc1NC(=O)CSc1nccn1C | 13% | 34%[activator]

Compounds from the list above containing a tert-butyl group, in the order listed:
SMILES | StopGo RLuc | StopGo FLuc
COc1ccc2c(c1)O/C(=C\c1ccc(C(C)(C)C)cc1)C2=O | -27% | 20%
CCCCc1ccc(Nc2nnc(SCC(=O)NC(C)(C)C)s2)cc1 | 14% | ?

Next compounds follow.
SMILES | StopGo RLuc | StopGo FLuc
CCc1ccc(NC(=O)Cn2c(=O)ccc3cc(S(=O)(=O)N4CCCC4)ccc32)cc1 | -9% | -16%
CCOc1ccc(C2NC(=O)c3c(COC)cc(C)nc3N2Cc2ccccc2)cc1OC (configuration not stated) | -4% | -3%
Cc1occc1-c1nnc(SCC(=O)c2cc(C)n(C3CC3)c2C)n1C | 9% | 4%
COCCCNC(=O)C1CCC(Cn2c(=O)c3sccc3n(Cc3ccc(F)cc3)c2=O)CC1 (configuration not stated) | -7% | -6%
COc1cccc(Cc2nc3ccccc3nc2SCC(=O)NCc2ccc(C)cc2)c1 | -4% | -18%
Cc1ccc(CNC(=O)C2CCCN(Cc3nc(-c4cccc(C)c4)oc3C)C2)cc1 (configuration not stated) | -13% | -6%
COc1cc(C(=O)COC(=O)CCCOc2ccc(Cl)cc2Cl)cc(OC)c1OC | 13% | 36%[activator]
Cc1ccc(NC(=O)CSc2cc(=O)n(C)c3ccc(Cl)cc23)c(Br)c1 | -13% | -23%
CCOc1ccc(OC(=O)c2ccccc2C(=O)c2ccccc2)cc1 | 4% | -4%
CCc1ccc2occ(CC(=O)Nc3sc4c(c3C(=O)OC)CCC4)c2c1 | 214%[activator] | -10%
O=S(=O)(c1ccc2ccccc2c1)n1nc(-c2ccco2)nc1NCc1cccc(Cl)c1 | 1% | -19%
CCc1ccc(CNC(=O)c2cnc(N3CCCCC3)c3ccccc23)cc1 | 33%[activator] | -17%
Cc1cccc(NC(=O)CSc2cn(CC(=O)N3CCOCC3)c3ccccc23)c1 | -9% | -1%
CCCSC1=C(C#N)C(c2ccc(CC)cc2)CC(=O)N1 (configuration not stated) | 19% | 4%
CCc1ccc(NC(=O)CSc2nc3c([nH]c4ccccc43)c(=O)n2-c2ccc(C)cc2)cc1 | 0% | 26%
CCCCCSc1nc2c(c(=O)[nH]c(=O)n2C)n1CCCc1ccccc1 | -5% | -8%
O=C(NCCN1CCCCC1)c1ccc(Cn2c(SCc3ccc(F)cc3)nc3cccnc32)cc1 | -15% | 51%[activator]
O=C(CN1CCNCC1)NC1CCCCC1 | -4% | 15%
Cc1nc2ncnn2c(N2CCCC2)c1Cc1ccccc1 | 0% | 0%
CCOC(=O)c1cnc2ccc(Cl)cc2c1Nc1cc(OC)ccc1OC | -10% | -16%

Part of the list above, with values under each structure.
Values in the order: StopGo RLuc | StopGo FLuc
CCOc1ccc(NC(=O)CN2CCN(CC(=O)Nc3ccc(N(CC)CC)cc3)CC2)cc1
→ -12% | -18%
Cc1cc2cc(CCNS(=O)(=O)c3ccc(Br)cc3)c(=O)[nH]c2cc1C
→ -16% | ?
